High-throughput results as filed in PubChem BioAssay.
CtBP-E1A inh: CtBP/E1A binding inhibition; AlphaScreen GST-E1A/His-CtBP binding, 1536-well; stronger effect = lower value; control for the full effect not named in the record; activity change, % (concentration not given with the values); 0.49% of 340,000 active; AID 651724; in the data active means activity change below about -65%; inconclusive means about -30% to -65%; inactive means above about -30%; also: % is scaled to controls: 0 for no effect and ±100 for the full control effect
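AlphaScreen with 125 nM GST-E1A and 125 nM His-CtBP (5X stocks) in Tris pH 8.0, 300 mM NaCl, BSA, Tween 20, TCEP. Compounds preincubated 2 h at 37 deg C, then glutathione donor/nickel acceptor beads added for 1 h at 37 deg C in dark.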
TRPML1 agonist: activates the human TRPML1 channel. TRPML1-expressing cells, Ca2+ dye fluorescence, FDSS; host cell line not named in the record; reference of the full effect not given here. Q9GZU1. 0.12% of 410,000 active. activation, % (concentration not given with the values); in the data active = activation above about 50%; inconclusive = about 30% to 50%; inactive = below about 30%; also: 0% is about no effect; the text of the record puts the active cut at 80%
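Tet-induced TRPML1-DL cells, 1,500 per well, cultured overnight, were loaded with a no-wash Ca2+ dye for 45–90 min. Calcium fluorescence was recorded on the FDSS for 110 s after compound addition, before the EC80 agonist (4 uM 54-4) was added.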
Six1-Eya2 blk: blocks human Six1 binding to Eya2 | Q15475+O00167 | AlphaScreen GST-Six1/His-Eya2 binding, biochemical; stronger effect = lower value; control for the full effect not named in the record | activity change, % (test concentration not listed) | 0.56% of 360,000 active; in the data active = activity change below about -65%; inconclusive = about -30% to -65%; inactive = above about -30%; also: % is scaled to controls: 0 for no effect and ±100 for the full control effect; compound concentration not given in the record
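GST-Six1 + His-Eya2 (5X stock: 250/500 nM); Tris pH 8.0, 300 mM NaCl, 0.05% BSA, 0.02% Tween 20; GSH donor/Ni acceptor beads; 1 h 37 °C dark; AlphaScreen readout.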
D2 ag: agonists of human D2 dopamine receptor (beta-arrestin) | activation, % (no concentration beside the values) | DiscoveRx PathHunter D2 beta-arrestin, luminescence, 90 min; 100% = 57 uM dopamine signal | P14416 | AID 624465 | 0.084% of 360,000 active; in the data active = activation above about 40%; inconclusive = about 15% to 40%; inactive = below about 15%; also: compound concentration not given in the record; the text of the record calls up to 30% inactive
Target sequence (P14416 whole entry, looked up): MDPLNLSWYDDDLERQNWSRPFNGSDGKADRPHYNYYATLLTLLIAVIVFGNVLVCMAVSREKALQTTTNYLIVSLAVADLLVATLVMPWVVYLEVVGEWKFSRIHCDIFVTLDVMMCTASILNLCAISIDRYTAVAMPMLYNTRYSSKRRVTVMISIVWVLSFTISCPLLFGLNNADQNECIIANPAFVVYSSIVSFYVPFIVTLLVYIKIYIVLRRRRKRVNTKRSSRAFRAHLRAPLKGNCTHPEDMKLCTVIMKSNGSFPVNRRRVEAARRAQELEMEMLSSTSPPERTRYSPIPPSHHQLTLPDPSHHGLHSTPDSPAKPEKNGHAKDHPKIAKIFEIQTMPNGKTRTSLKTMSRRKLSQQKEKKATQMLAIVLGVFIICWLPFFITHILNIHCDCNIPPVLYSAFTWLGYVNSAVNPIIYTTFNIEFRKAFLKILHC
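DiscoveRx PathHunter D2 beta-arrestin cells (2,100/well) attached overnight, then compound-stimulated 90 min at 37 C in HBSS/10 mM HEPES/0.1% Tween-20 buffer; beta-galactosidase complementation read by luminescence after 1 h at ambient temperature. Dopamine 57 uM final (EC100) as control.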
D2 PAM: positive allosteric modulators of human D2 dopamine receptor; P14416; DiscoveRx D2 beta-arrestin cells, luminescence, 90 min; 100% = 57 uM dopamine signal; potentiation, % (concentration not given with the values); 0.23% of 360,000 active; AID 624464; active = potentiation of 50% or more; inconclusive = 30% to 50%; inactive = 30% or less;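 also: compound concentration not given in the record; tested on top of an EC20 dose of dopamine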
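PathHunter beta-arrestin assay in DiscoveRx D2 cells. Compounds were added with an EC20 of dopamine (50 nM final) for 90 min at 37 deg C. Luminescence was read 1 h after detection reagent, with 57 uM dopamine as the EC100 control.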
PINK1 modulator: changes PINK1 expression; AID 624263; PINK1 immunofluorescence, high-content cytometry, 24 h; 0.2% of 410,000 active; Potency, µM (highest dose often 76.6 µM), without a hit: at the highest dose activation (PINK1 increase), hits mostly activators; active = well fitted activation curve with a large enough effect; inconclusive = small, poorly fitted or top-dose-only effect; inactive = flat fitted curve, though single readings scatter; cell line not stated here;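 also: potency is read from the fitted curve at half-maximal effect; % of control where 0% means no effect; nearly all actives have a fitted effect of over 65% in size; a mitochondrial uncoupler was the plate control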
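Measures PINK1 amount and localization on or inside mitochondria by immunofluorescence. Stable cells get compounds at 5 concentrations for 24 hours before fixation and staining; CCCP controls included.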
The depositor's hits bear a star; ? = inconclusive; / = no result given; & = joins results of further samples; [ ] = remark or other dose.

compound,CtBP-E1A inh,TRPML1 agonist,Six1-Eya2 blk,D2 ag,D2 PAM,PINK1 modulator
CC(C)(C)c1ccc(OCCC(=O)OCC(=O)Nc2ccc(N3CCOCC3)cc2)cc1,-2,-0.7,-14,-3.6,12,1.9%
Cc1cc(C)c(C)c(S(=O)(=O)N2CCCN(C)CC2)c1C,-2,1.5,6,-5.8,-15,0.5%
Cc1ccc(-c2nnn(CC(=O)N(CC(=O)NC3CCCC3)c3cnc4ccccc4c3)n2)o1,5,1.1,-1,-0.9,4,13%[38.3 µM]
Cc1cccc(NC(=S)N2CCCN(c3ncccc3[N+](=O)[O-])CC2)c1,0,0.6,-20,-2.4,-21,-0.3%
Cc1ccc(S(=O)(=O)N(C)C[C@@H]2OCc3cnnn3CCCC(=O)N([C@@H](C)CO)C[C@@H]2C)cc1,-6,-0.4,-2,-7.4,-2,0.7%
COc1ccc(-c2nnc(SCC(=O)N(C)C3CCS(=O)(=O)C3)n2CC(C)C)cc1 (stereo not given),-2,-0.1,1,-3.8,-8,0.2%
Cc1cc(C)c2nc(SCC(=O)Nc3ccc(S(=O)(=O)N4CCCC4)cc3)c(C)cc2c1,-1,0.0,-1,-5.6,-5,/
CN(C)/C=N/c1ncc(C(=O)c2ccc(Cl)cc2)s1,11,0.3,2,-0.4,-16,1.2%
O=C(/C=C/c1ccco1)NC(=S)Nc1nc(-c2ccc(Cl)cc2)cs1,-2,0.1,-15,-2.1,-16,8.0%
Cc1ccc(S(=O)(=O)N2CCCCC2)cc1NC(=O)CCNC(=O)c1ccc([N+](=O)[O-])cc1,-4,-0.4,-1,6.3,1,-0.4%
COC(=O)[C@]1(Cc2ccccc2)N[C@H](CN(C)C(=O)Nc2ccc(F)cc2)[C@@H]2C(=O)N(C)C(=O)[C@@H]21,-4,-0.8,-7,-2.4,/,-0.2%
CCOC(=O)C1CCN(C(=O)CSc2cc(=O)n(CC)c3ccccc23)CC1,-20,-0.2,-8,-1.9,-10,1.8%[38.3 µM]
O=C(CC(CC(=O)c1ccc(Cl)cc1)c1ccccc1C(=O)O)c1ccc(Cl)cc1,0,0.8,-1,-7.9,-13,-0.1%
COc1ccc(-c2cc(C(F)(F)F)n3nc(C(=O)N4CCN(C(=O)c5ccco5)CC4)cc3n2)cc1,-3,-1.0,-6,-0.5,-6,0.6%
Cc1ccc(CNS(=O)(=O)/C=C/c2ccc3c(c2)OCO3)cc1,3,-0.4,0,-0.8,-21,-0.6%
CN(C)c1ccc(CN2CCC(C(N)=O)CC2)cc1,/,-0.5,1,0.1,-9,-0.5%
CCOc1ccccc1C1CC(=O)NC2=C1C(=O)CC(C)(C)C2 (stereo not given),0,-0.7,2,-0.7,23,-0.5%
O=C(C1CCN(S(=O)(=O)c2ccc(Cl)s2)CC1)N1CCN(c2ccccc2)CC1,-3,-0.3,-7,2.3,3,-0.7%
CCNC(=O)O/N=C(\C)c1sc(-c2ccc(Cl)cc2)nc1C,-26,0.3,0,0.5,-15,-0.8%
CC(=O)Cn1cnc2c(cnn2-c2ccccc2)c1=O,1,0.0,3,0.2,0,-1.4%
CCN1C(c2ccc(F)cc2)=CS/C1=C(/C#N)c1nnc2n1-c1ccccc1SC2,-7,-0.2,-12,0.0,-14,4.0%
CC(NC(=O)c1ccco1)C(c1cccs1)N1CCN(c2ccccc2F)CC1 (stereo not given),-12,-0.2,-14,-1.2,8,/
Cc1cc(N2CCN(c3ccc(F)cc3)CC2)n2ncnc2n1,/,2.9,1,-2.3,5,-0.4%
Cc1cccc(NC(=S)c2nc3ccccc3s2)c1,-81*,2.5,-75*,-6.6,-24,11%
Cc1nnc(NC(=O)C2CCN(S(=O)(=O)c3ccc(Cl)cc3)CC2)s1,-13,0.3,12,0.0,-18,0.0%

The final two entries of the section above are carried over, then new ones follow:
compound,CtBP-E1A inh,TRPML1 agonist,Six1-Eya2 blk,D2 ag,D2 PAM,PINK1 modulator
Cc1cccc(NC(=S)c2nc3ccccc3s2)c1,-81*,2.5,-75*,-6.6,-24,11%
Cc1nnc(NC(=O)C2CCN(S(=O)(=O)c3ccc(Cl)cc3)CC2)s1,-13,0.3,12,0.0,-18,0.0%
OCCOCCn1c(C2CCCN2c2nc(-c3ccc(F)cc3)cs2)nc2cc(Cl)c(Cl)cc21 (stereo not given),-2,-0.2,-10,-3.7,-7,0.5%
CC1(C)OC(=O)C2=C(C[C@@H](C3CCCCC3)O[C@@H]2c2ccc(F)cc2)O1,29,0.3,24,/,/,15%
O=C(NCc1ccco1)c1ccc2c(c1)N(Cc1ccc(Cl)cc1)CCS2,-12,2.1,-6,-5.3,-6,0.6%
Cc1ccc(-c2nnc(COc3cccc(-n4cnnn4)c3)o2)cc1,5,1.0,0,-2.4,-7,4.9%
CN1CCN(CC(=O)C23CC4CC(CC(C4)C2)C3)CC1,15,-0.5,2,-0.6,-8,-4.7%
O=C(CN1C(=O)C(=O)N(Cc2ccccc2)C1=O)c1ccc[nH]1,-7,2.6,4,0.6,-14,1.5%
CS(=O)(=O)N1c2cccc3cccc(c23)S1(=O)=O,27,-0.7,2,2.8,3,-2.0%
COc1ccc(C)cc1NS(=O)(=O)c1ccc(-c2cnc(C3CC3)o2)cc1,/,0.2&-0.9,11,-1.8,-1,19%&0.6%
O=C(CCCSc1nc2ccccc2s1)Nc1nccs1,1,1.6,1,-0.9,1,1.1%
Fc1ccc(NC(=S)Nc2cccnc2)c(F)c1F,0,1.2,0,-3.6,-5,-2.0%
CCCNC(=O)Cn1c(=O)n(C)c2ccccc21,/,-0.1,4,-6.4,-17,1.0%
CCC1Oc2ccc(C)cc2N(CC(=O)NCCCN2CCCC2)C1=O (stereo not given),-9,0.1,2,-0.5,-11,1.8%
CC(C)c1csc(CN2CCC(n3nccc3NC(=O)Cc3ccccc3)CC2)n1,2,-0.4,-3,-4.2,-18,0.3%
Cc1noc(C)c1NC(=O)Nc1ccc2c(c1)C(=O)N([C@H](C)CO)C[C@H](C)[C@H](CN(C)C)O2,4,-0.3,1,-4.8,-9,-0.2%
CCOC(=O)c1c(N=CN(C)C)c(C#N)c2n1CCCC2,3,-0.6,2,-2.6,3,-0.3%
COc1ccc(NC(=O)CC2C(=O)N(C)C(=S)N2Cc2ccc3c(c2)OCO3)cc1 (stereo not given),-4,1.7,9,-2.8,-11,3.6%
CC(C)C(=O)NCCc1c[nH]c2ccccc12,3,1.1,1,2.6,-15,0.1%
O=C(CCOc1ccccc1)OCC(=O)c1cc2ccccc2o1,5,2.4,24,-7.0,-38,-0.3%
CCCC[C@@H]1C[C@H]1[C@@H](NC(=O)c1ccccc1)c1ccccc1C(F)(F)F,12,0.8,4,-2.4,-4,8.4%
O=C1CCC([N+](=O)[O-])C(c2cc(Br)ccc2F)N1 (stereo not given),10,0.0,-17,4.0,-1,2.4%
CCOc1ccc(S(=O)(=O)N(CC)CC)cc1NC(=O)CSCc1c(C)noc1C,-7,0.3,7,5.1,-6,-0.5%
CC(=O)N1CCN(c2ccc([N+](=O)[O-])cc2)CC1,6,0.3,4,-0.8,-6,0.0%
O=C(Cn1cnc(S(=O)(=O)N2CCCCC2)c1)NCc1ccco1,/,-0.1,3,-0.1,-6,0.7%
CN(CCc1ccccc1)C(=O)c1ccc(NC(=O)Cc2ccc(NC(=O)C3CCCN(C(=O)C4CCCC4)C3)cc2)cc1 (stereo not given),-1,1.6,1,-0.4,-2,0.9%
COc1ccc(C2CCCCCN2C(=O)C2CCN(S(=O)(=O)c3cccc(C(C)=O)c3)CC2)cc1 (stereo not given),-4,3.1,3,1.8,-5,-1.6%
COc1ccc(/C=N/NC(=O)CC(=O)N/N=C/c2ccc(OC)cc2)cc1,-4,0.3,-6,0.6,-5,2.5%
COc1ccc(C(=O)COc2ccc3c(C)cc(=O)oc3c2)cc1,/,-0.6,-2,-0.1,0,3.9%
O=C(COC(=O)CNS(=O)(=O)c1c(Cl)cccc1Cl)Nc1cccnc1Cl,5,0.2,4,0.7,11,0.4%
CC(=O)Nc1ccc(S(=O)(=O)NCCCN2CCN(Cc3ccccc3)CC2)cc1Cl,8,-0.1,-14,-1.7,-18,-2.0%
Cc1ccnc(NS(=O)(=O)c2ccc(NC(=O)c3ccc4c(c3)OCCO4)cc2)n1,/,0.3,-1,-2.6,-12,-0.7%
CCNc1cc(S(=O)(=O)C(F)(F)F)ccc1N,0,3.3,-1,2.9,-9,0.5%
CCc1nnc(NC(=O)c2ccc(-c3cccc(C(F)(F)F)c3)o2)s1,6,0.2,-3,-0.7,-12,4.3%
Cc1cc(NC(=O)CCN2CCN(C)CC2)ccc1Br,14,1.7,-13,6.1,-10,-0.6%
Cc1ccc(S(=O)(=O)NCC(=O)N2CCCC2C(=O)O)cc1 (stereo not given),8,1.4,5,4.6,1,-1.8%
COc1cccc(NC(=O)CN2CCSc3ccccc32)c1,-7,-1.0,-22,-5.5,-9,4.3%
Cc1ccc(NC(=O)CN2CCN(C)CC2)cc1S(=O)(=O)N1CCOCC1,8,-0.4,5,-5.7,-4,6.2%
CCN(c1ccc(OC)cc1)S(=O)(=O)c1nnc(NC(=O)c2ccccc2Cl)s1,-6,-1.6&4.7,-5,1.3,2,-1.2%&0.4%
CCc1nnc(SCC(=O)Nc2ccc(NC(C)=O)cc2)n1-n1cccc1,0,-0.3,-3,-6.1,-6,-1.2%
COc1cccc(C(=O)C2=NN(C(C)=O)CC2c2ccco2)c1 (stereo not given),-15,3.2,-2,?,0,0.8%
CC1(C(=O)NS(=O)(=O)c2cccc(C#N)c2)CCN1C(=O)C1(c2ccc(Cl)cc2)CC1 (stereo not given),4,-0.6,-6,-2.5,-2,-0.3%
